eIF4H inh – human eIF4H binding inhibitors, primary screen, translation initiation inhibitor project, biochemical, uHTS, fluorescence polarization | hit rate 0.94% among 290,000 | eIF4H fluorescence polarization binding assay | AID 2012, 2009 | inhibition, % at 35 µM;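 active = 50% or more with normal probe brightness, or confirmed in later tests; inconclusive = above 50% with abnormal brightness, or retests that disagree; inactive = below 50% or failed in later tests; about a fifth of its hits are not listed in these tables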;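 note: calls also rest on retests at 20 µM and on dose response follow-up; 0% = protein and probe with vehicle and 100% = probe without protein; strong numbers were not always called active; many hits fall short of the cut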
Rce1 inhib – yeast Rce1p protease inhibitors, primary screen, biochemical, fluorescence, cell-free homogeneous. CAAX prenyl protease 2 (Saccharomyces cerevisiae (strain ATCC 204508 / S288c)), Q03530. yeast membranes, quenched prenylated peptide cleavage fluorescence. calls only. hit rate 0.27% among 290,000;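 active = fall in fluorescence gain of 50% or more versus controls, with final raw signal at or below 3038400; inconclusive = same 50% fall but final raw signal above 3038400; inactive = fall in fluorescence gain under 50%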;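 note: plate controls were neutral control wells for no effect and wells lacking membranes for full effect; tested at 10 µM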
Env fusion inh – inhibitors of HIV-1 Env-driven cell-cell fusion, primary screen, HeLa-JRFL effector, CEM21 target cells, luciferase. hit rate 1.1% among 360,000. inhibition, % at 12.3 µM. AID 651610, 2012;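 active = mean replicate inhibition score of at least 50 and every replicate individually at or above 50; inconclusive = only one of the two criteria met; inactive = mean below 50 and not all replicates reaching 50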;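 note: 0% = plate neutral controls and 100% = maraviroc near 300 nM; one replicate is shown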
CSC inhib – cancer stem cell viability inhibitors, primary screen, luminescence; cancer stem cell-like cells viability; AID 2717, 2010; hit rate 1.1% among 300,000; inhibition, % at 7.5 µM;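 active = mean at 75% or more and at least half the replicates too; inconclusive = mean and replicates disagree; tested in HMLE shEcad cells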;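 note: 0% = median of negative and 100% = median of positive control wells; the first replicate is given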
PABP FP inh – PABP poly(A) RNA binding inhibitors, primary screen, biochemical, fluorescence polarization, uHTS. inhibition, % at 35 µM. Polyadenylate-binding protein 1 (Homo sapiens), P11940. hit rate 1% among 290,000;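 active = 50% or more with normal probe brightness, or confirmed in later tests; inconclusive = above 50% with abnormal brightness, or retests that disagree; inactive = below 50% or failed in later tests; about a fifth of its hits are not listed in these tables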;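 note: calls also rest on retests at 20 µM and on dose response follow-up; controls were probe without protein and protein plus probe with vehicle; some compounds called inactive have numbers as strong as hits; many hits fall short of the cut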
Target sequence (P11940 whole entry, looked up): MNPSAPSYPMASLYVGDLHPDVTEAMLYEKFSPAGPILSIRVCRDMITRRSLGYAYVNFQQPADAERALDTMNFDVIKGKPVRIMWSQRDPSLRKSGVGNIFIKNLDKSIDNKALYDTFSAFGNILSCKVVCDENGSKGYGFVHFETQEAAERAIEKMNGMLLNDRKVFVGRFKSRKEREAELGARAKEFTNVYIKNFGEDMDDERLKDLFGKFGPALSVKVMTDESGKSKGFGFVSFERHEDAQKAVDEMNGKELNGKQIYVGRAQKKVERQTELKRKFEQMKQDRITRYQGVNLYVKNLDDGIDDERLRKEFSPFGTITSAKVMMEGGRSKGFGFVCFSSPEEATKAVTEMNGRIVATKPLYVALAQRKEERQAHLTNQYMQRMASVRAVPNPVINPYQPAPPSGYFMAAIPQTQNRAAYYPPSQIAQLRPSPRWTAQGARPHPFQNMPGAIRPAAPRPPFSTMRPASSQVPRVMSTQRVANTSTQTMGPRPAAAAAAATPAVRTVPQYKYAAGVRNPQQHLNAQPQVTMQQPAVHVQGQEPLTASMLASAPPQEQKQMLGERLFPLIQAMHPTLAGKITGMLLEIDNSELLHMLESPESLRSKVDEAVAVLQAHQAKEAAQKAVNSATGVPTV
UUG fidelity – modulators of yeast start codon fidelity, primary screen, whole organism, S. cerevisiae, single point, plate reader | S. cerevisiae UUG-firefly luciferase reporter, luminescence/redox ratio | activity score, % at 18.7 µM | hit rate 0.13% among 350,000;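 active = replicate mean at a twofold rise or more, about +100% in these data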;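 note: firefly luciferase made from a UUG start codon reports start codon fidelity; reporter light over untreated wells divided by growth signal over untreated wells; some hits fall short of that in this replicate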
MT1-MMP act inh – blockers of MT1-MMP proenzyme processing, primary screen, HT1080 RFP-PRO-GFP cells, GFP/RFP fluorescence; GFP/RFP ratio fluorescence, overnight; percent of plate control window, DMSO zero; hit rate 0.061% among 360,000; GFP/RFP ratio change, % at 20 µM;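 active = GFP/RFP ratio change of at least 30% with cell ATP level not reduced by more than half and red fluorescence within 50% of control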; note: strong numbers were not always called active
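Material: RFP-PRO-GFP reporter HT1080 cells. Dosing: single-point 20 µM compound, 1% DMSO. Controls: DMSO and RFP-L50D-GFP cell wells. Timing: cells overnight before dosing, compound overnight, 37 °C, 5% CO2. Measure: GFP/RFP fluorescence ratio.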
MT1-MMP act inh RFP – recorded beside MT1-MMP act inh, whose call it bears; RFP signal change, %; measured here: RFP expression control read;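 0 = vehicle wells; hits needed this value within 50% of zero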
An asterisk follows results filed as active; i = inactive; ? = inconclusive; / = not tested or not shown. Random draw from the library. About 2.9% of those tested had a hit in this group.

SMILES	eIF4H inh	Rce1 inhib	Env fusion inh	CSC inhib	PABP FP inh	UUG fidelity	MT1-MMP act inh	MT1-MMP act inh RFP
CCCCC(=O)Nc1ccc(NC(=O)c2ccccc2OC)cn1	0	i	-24	9	1	-13	0	4
CCOC(=O)c1nnc2cc(-c3ccc(Br)cc3)nn2c1C	3	i	/	-18	11	/	-1	-1
CC(C)CNS(=O)(=O)c1ccc(OCC(=O)NCC2CCCO2)c(Cl)c1 (stereo unspecified)	2	i	/	-13	1	0	0	-2
CC(=O)N1CCc2cc(S(=O)(=O)CCC(=O)NCc3ccc(Cl)cc3)ccc21	-14	i	-6	6	4	-3	3	-1
Cc1ccc2[nH]c(=O)c(CN(Cc3cccnc3)C(=O)c3ccncc3)cc2c1	-4	i	-66	13	-4	-26	-1	2
CCN(CC(=O)NC1CCS(=O)(=O)C1)S(=O)(=O)c1cc([N+](=O)[O-])ccc1C (stereo unspecified)	/	i	/	-6	/	-21	2	6
CN1CCC(=O)N([C@H](CN=[N+]=[N-])Cc2ccccc2)CC1	7	i	-14	-11	29	-9	4	3
CC(=O)Nc1ccccc1NC(=O)C/C(C)=N/NC(=O)C(=O)Nc1cccc(Cl)c1C	-11	i	-1	3	5	/	3	2
CCc1ccc2c(c1)C1(SC(NC(C)=O)=NN1C(C)=O)C(=O)N2CC (stereo unspecified)	7	i	15	8	6	-6	2	4
CC1CCc2c(C(=O)NCC3CCCO3)csc2C1 (stereo unspecified)	-2	i	/	-16	4	6	4	4
CNC(=O)c1sccc1SCc1c(Cl)cccc1Cl	-8	i	/	-9	-10	6	-7	-5
O=C(Nc1ccccc1)OCCCc1ccccc1	7	i	-24	24	-10	1	2	5
NC(=O)c1ccc(SCC(=O)OCC(=O)NCC2CCCCC2)c([N+](=O)[O-])c1	/	i	1	-11	/	-8	3	1
COCCCN(C(=O)C1CCC1)c1c(N)n(Cc2ccccc2)c(=O)[nH]c1=O	/	/	/	-16	/	-6	2	4
Cc1cccc(C(=O)Nc2cccc3c2CCCC3)c1	-7	i	7	1	1	0	0	-2
Cc1cccc(N/N=C(\C#N)S(=O)(=O)C(C)(C)C)c1	10	i	12	-9	-7	/	2	-4
CCCCc1nc2ccccc2c(NC(=O)CN2CCCC2)c1CCC	4	i	/	-9	-3	/	4	1
Cc1cc(NC(=O)CSc2nnc(-c3cccc(Cl)c3)o2)no1	6	i	/	22	4	-19	10	3
CC(=O)Nc1cccc(-n2nnc(SCC(=O)N(C)c3ccccc3)n2)c1	-2	i	9	-10	10	6	0	-1
CCOC(=O)CC1COc2ccccc2N1C(=O)c1ccc(C)cc1 (stereo unspecified)	-6	i	-70	/	-2	-7	1	3
CCN1C(=O)[C@@H]2[C@@H](c3ccc(-c4ccc(OC)cc4)c(OC)c3)N3CCC[C@@]3(C(=O)OC)[C@@H]2C1=O	/	i	-5	-2	/	-16	2	0
Cc1nnc(N/N=C\c2ccc(-c3ccccc3[N+](=O)[O-])o2)n1N	21	i	-64	-10	2	/	-9	-6
CCN(CC)C(=O)[C@H]1C[C@H](CC(=O)NCc2cccc(C(F)(F)F)c2)C(=O)N2CCc3c([nH]c4ccc(Cl)cc34)[C@]12C	/	/	-17	/	/	-5	-13	-24
CCC(c1nnnn1CC1CCCO1)N(CCCO)Cc1cc2cccc(C)c2[nH]c1=O (stereo unspecified)	-12	i	-56	7	3	-11	3	3
CCOP(=O)(OCC)C(NC(=O)Nc1cccc(Cl)c1)c1ccccc1 (stereo unspecified)	5	/	8	-6	-5	-13	2	2
O=C(COc1ccc(/C=N/NS(=O)(=O)c2ccccc2)cc1)NCCc1ccccc1	0	i	/	-5	-1	-3	-6	-13
Cn1c(=O)c2c(nc(NCCNC(=O)c3ccco3)n2Cc2ccccc2)n(C)c1=O	-7	i	11	0	2	-7	2	-10
O=c1/c(=C\c2ccc(O)cc2)sc2nc(-c3ccccc3)c(-c3ccccc3)n12	-9	i	2	17	-8	/	-34	-14
O=C(Nc1ccc([N+](=O)[O-])cc1NC(=O)c1ccccc1)c1ccccc1	/	/	-5	/	/	-5	7	-6
CCC(=O)NNc1nc2c(F)cccc2s1	-8	i	-8	-7	-5	2	1	5

A few values from the list:
O=C(COc1ccc(/C=N/NS(=O)(=O)c2ccccc2)cc1)NCCc1ccccc1 in MT1-MMP act inh RFP reads -13
Cn1c(=O)c2c(nc(NCCNC(=O)c3ccco3)n2Cc2ccccc2)n(C)c1=O in UUG fidelity reads -7
CC(=O)Nc1cccc(-n2nnc(SCC(=O)N(C)c3ccccc3)n2)c1 in MT1-MMP act inh RFP reads -1
CCN1C(=O)[C@@H]2[C@@H](c3ccc(-c4ccc(OC)cc4)c(OC)c3)N3CCC[C@@]3(C(=O)OC)[C@@H]2C1=O in UUG fidelity reads -16
Cc1cccc(N/N=C(\C#N)S(=O)(=O)C(C)(C)C)c1 in PABP FP inh reads -7
Cc1nnc(N/N=C\c2ccc(-c3ccccc3[N+](=O)[O-])o2)n1N in PABP FP inh reads 2
CCN(CC)C(=O)[C@H]1C[C@H](CC(=O)NCc2cccc(C(F)(F)F)c2)C(=O)N2CCc3c([nH]c4ccc(Cl)cc34)[C@]12C in UUG fidelity reads -5

Limited to MT1-MMP act inh, MT1-MMP act inh RFP and Rce1 inhib, for some of the entries so far:
Structure | MT1-MMP act inh | MT1-MMP act inh RFP | Rce1 inhib
CCC(c1nnnn1CC1CCCO1)N(CCCO)Cc1cc2cccc(C)c2[nH]c1=O (stereo unspecified) | 3 | 3 | i
CCOP(=O)(OCC)C(NC(=O)Nc1cccc(Cl)c1)c1ccccc1 (stereo unspecified) | 2 | 2 | /

(listing goes on)
SMILES	eIF4H inh	Rce1 inhib	Env fusion inh	CSC inhib	PABP FP inh	UUG fidelity	MT1-MMP act inh	MT1-MMP act inh RFP
COc1ccc(-c2cc(C(=O)NNC(=O)c3csc(N4CCOCC4)n3)c3ccccc3n2)cc1	/	i	5	6	/	/	3	2
Cc1nn(C(C)C(=O)O)c2ccccc12 (stereo unspecified)	-3	i	/	-4	24	/	0	-1
NC(=NC(=O)c1ccccc1)N1CCOCC1	-5	i	/	11	-5	-20	-2	0
COc1ccc(NC(=O)c2[nH]c(C)c(C(C)=O)c2C)cc1	-1	i	-9	-5	-4	/	-7	-2
CC(=O)N1CCC(=NNc2nc3ccccc3[nH]2)CC1	3	i	-6	6	4	-32	2	5
COc1cccc(C(=O)Nc2cccc(-c3nnc(-c4ccccc4)o3)c2)c1	/	i	-2	26	/	-13	6	-3
N=c1ccn2c(n1)OC1C(O)C(CO)OC12 (stereo unspecified)	6	i	49	10	-5	-6	-11	-3
COc1ccc(N2C(=O)C3CCCN3C2c2ccccc2)cc1Cl (stereo unspecified)	-2	i	47	10	3	-12	-2	-2
CCCCn1c(=O)nc2n(-c3ccccc3C)c3ccccc3cc-2c1=O	4	i	3	-1	-8	-5	1	-2
O=C(CSc1ccccc1)NNC(=O)c1ccccc1O	11	i	-16	4	9	-26	4	3
COc1ccc2ccccc2c1CNC(=O)CC1C(=O)NCCN1CC(C)C (stereo unspecified)	16	i	23	1	3	-4	-11	6
Cc1cc(C)c(S(=O)(=O)Nn2cnnc2)c(C)c1	-7	i	10	-11	-5	-15	-7	2
Fc1ccccc1-n1[nH]nnc1=S	3	i	-82	-2	1	-8	2	4
CCc1ccc(NC(=O)CNC(=O)Cn2ccc3ccccc3c2=O)cc1	-7	/	4	-6	-7	-11	2	4
O=C(Nc1ccccc1C(F)(F)F)c1ccc(F)c(S(=O)(=O)N2CCOCC2)c1	3	i	/	6	5	-7	0	1

A second format for some results above:
Cc1nn(C(C)C(=O)O)c2ccccc12 (stereo unspecified)
  eIF4H inh: -3
  Rce1 inhib: i
  Env fusion inh: /
  CSC inhib: -4
  PABP FP inh: 24
  UUG fidelity: /
  MT1-MMP act inh: 0
  MT1-MMP act inh RFP: -1
N=c1ccn2c(n1)OC1C(O)C(CO)OC12 (stereo unspecified)
  eIF4H inh: 6
  Rce1 inhib: i
  Env fusion inh: 49
  CSC inhib: 10
  PABP FP inh: -5
  UUG fidelity: -6
  MT1-MMP act inh: -11
  MT1-MMP act inh RFP: -3

Next compounds.
SMILES	eIF4H inh	Rce1 inhib	Env fusion inh	CSC inhib	PABP FP inh	UUG fidelity	MT1-MMP act inh	MT1-MMP act inh RFP
N#Cc1nc(-c2ccc(Cl)cc2)oc1N1CCCCC1	-1	?	-17	-3	7	/	-5	-3
CC(Sc1ccc([N+](=O)[O-])cn1)C(=O)Nc1nccs1 (stereo unspecified)	2	i	16	/	-9	-10	2	3
CCOC(=O)CNC(=O)C1CCCN(c2ncccn2)C1 (stereo unspecified)	2	i	-32	9	12	-11	3	3
CCOC(=O)N1CCC(NC(=O)c2ccc3c(c2)N(Cc2ccc(C)cc2)CCS3)CC1	4	i	30	-2	3	-6	7	-13
CCCCN(C)C1CCN(C(=S)Nc2cccc(SC)c2)CC1	-2	i	18	10	-2	/	10	4
CC1=C(C)C(=O)C(N2CCOCC2)=CC1=O	0	i	19	/	-2	-8	/	/
CN(C)CCNC(=O)C(=O)NCC1OCCN1S(=O)(=O)c1cc(F)ccc1F (stereo unspecified)	20	i	-5	-37	11	0	0	1
CCc1ccc(CNC(=O)C2CCN(c3nnc(C)c4c(C)n(-c5ccc(C)cc5)nc34)CC2)cc1	-12	i	/	?	-22	1	-2	-9
CCc1nnc(NC(=O)Cn2nc(-c3ccccc3OC)ccc2=O)s1	-2	i	-1	9	-4	-7	7	3
Fc1cccc(Nc2nc(Cl)nc(Cl)n2)c1	-3	i	8	7	0	/	-2	0
Cc1cc([N+](=O)[O-])nn1CC(=O)Nc1ccccn1	-3	i	-9	-10	1	/	2	7
COc1ccc(N2C(=O)CSC2c2ccc(F)cc2)cc1 (stereo unspecified)	-5	i	23	/	4	-14	1	-1
COc1cccc(OC)c1C(=O)Nc1ccc(N2CCN(C(=O)c3cccs3)CC2)cc1	-9	i	-1	3	-12	2	-6	-5
COc1cc(CC(=O)NCCCc2ccccc2)cc(OC)c1OC	-7	/	16	-15	-2	-6	3	-5
COc1ccc(-c2coc3cc(OC(=O)N4CCOCC4)ccc3c2=O)cc1	-9	i	-14	-13	3	-2	3	-15
O=C(Nc1ccccc1Cl)NN1CCCCCC1	/	/	-2	/	/	2	0	-7
Cc1cc(Cl)ccc1OC(C)C(=O)OCC(=O)c1ccc[nH]1 (stereo unspecified)	/	/	/	6	/	-7	-2	-1
Clc1ccccc1-c1ncc(-c2ccccc2)o1	-2	i	-124	-6	-4	-18	1	2
COCCNC(=O)COc1ccc(C)cc1C	2	i	/	-10	8	-15	-3	1

A different layout for two compounds above:
Clc1ccccc1-c1ncc(-c2ccccc2)o1
- eIF4H inh: -2
- Rce1 inhib: i
- Env fusion inh: -124
- CSC inhib: -6
- PABP FP inh: -4
- UUG fidelity: -18
- MT1-MMP act inh: 1
- MT1-MMP act inh RFP: 2

Cc1cc(Cl)ccc1OC(C)C(=O)OCC(=O)c1ccc[nH]1 (stereo unspecified)
- eIF4H inh: /
- Rce1 inhib: /
- Env fusion inh: /
- CSC inhib: 6
- PABP FP inh: /
- UUG fidelity: -7
- MT1-MMP act inh: -2
- MT1-MMP act inh RFP: -1
